# VACV Venus inh – vaccinia inhibition (Venus reporter); Vaccinia virus Venus reporter expression, fluorescence; Potency, µM (top dose mostly 36.5 µM), for inactives: at the highest dose activity change, negative = inhibition, hits mostly inhibitors; 330,000 compounds, 0.46% hits; AID 720580; active means well fitted inhibition curve with a large enough effect; inconclusive means small, poorly fitted or top-dose-only effect; inactive means no such curve, though single readings can be large or run the other way; tested in A549 cells; also: nearly all actives have a fitted effect of over 30% in size; inactives centre near -10
# VACV mCherry inh – inhibitors of vaccinia virus infection (mCherry reporter signal). Potency, µM (doses to about 36.5 µM), inactives show top-dose activity change, negative = inhibition, usual class: inhibitors. AID 720579. 310,000 compounds, 0.63% hits. Vaccinia virus mCherry reporter infection, fluorescence; about a quarter of the inactives have no number; active = well fitted inhibition curve with a large enough effect; inconclusive = small, poorly fitted or top-dose-only effect; inactive = no such curve, though single readings can be large or run the other way; tested in A549 cells; also: nearly all actives have a fitted effect of over 35% in size; inactives centre near -10
# * hit, by the source's call; i = inactive; ? = inconclusive; . = not tested or not shown; [ ] = dose if it differs, or a comment. % is scaled to controls: 0 for no effect and ±100 for the full control effect; potency is read from the fitted curve at half-maximal effect.
structure	VACV Venus inh	VACV mCherry inh
O=C1[C@H](Cc2ccccc2)NC/C=C\C[C@@H](c2ccc(Cl)cc2)N1Cc1ccccc1	-12.7%	-0.2%
CCN(CC)S(=O)(=O)c1ccc(C)c(NCC(=O)Nc2ccc(C#N)c(Cl)c2)c1	?	-20.1%
CCCCNC(=O)C(NC(=O)c1ccc(-c2ccccc2)cc1)C(=O)c1ccccc1 (centres undefined)	-14.9%	-8.8%
Cc1ccc(CNC(=O)c2cc(=O)c3ccccc3o2)cc1	-11.6%	-2.8%
O=C1NC[C@H](CCCCN2CCN(CC3CCCCC3)C(=O)C2=O)N(CCC2CCCCC2)C1=O	0.1%	-2.6%
CN(CCO)c1ccc(/C=N/Nc2nncc3ccccc23)cc1	-20.6%	-17.4%
CCCN(C(=O)CCc1nc(-c2ccccc2F)no1)c1ccc(CC)cc1	-2.6%	-1.5%
CCOc1ccccc1C(=O)N(Cc1ccco1)C1CCS(=O)(=O)C1 (centres undefined)	-4.3%	-5.6%
Cc1cccc(-n2c(/C=C\c3cccc(Br)c3)nc3ccccc3c2=O)c1	-21.0%	-17.4%
CC(C)(C)CC(=O)N1CCN(Cc2ccc3c(c2)OCO3)CC1	-10.9%	-0.2%
CCOC(=O)COn1c(=O)c(-c2cc3ccccc3o2)[n+]([O-])c2ccccc21	-1.8%	1.2%
O=C1C2CCCN2C(c2ccc(F)c(F)c2)N1c1cccc(Cl)c1 (centres undefined)	-11.9%	-8.8%
CC(C)C(NC(=O)OCc1ccccc1)C(=O)NCc1ccc(C(=O)O)cc1 (centres undefined)	3.4%	i
COc1cc(NC(=O)c2cc3cc4ccc(C)cc4nc3o2)cc(OC)c1OC	?	?
O=[N+]([O-])c1cccc(/C=N\N2CCN(c3ccc(Cl)cc3)CC2)c1	-11.5%	.

# Next section.
structure	VACV Venus inh	VACV mCherry inh
CC(C)c1ccc(N(CC(=O)N2CCN(Cc3ccccc3)CC2)S(C)(=O)=O)cc1	-21.0%	-6.2%
N#CCc1c(C#N)c(N)nc(N2CCN(S(=O)(=O)c3ccccc3F)CC2)c1C#N	-4.0%	i
COCCN(CCOC)S(=O)(=O)c1ccc(C(=O)NC2CCN(Cc3ccccc3)CC2)cc1	-21.1%	.
Cc1cccc(NC2=C(NC(=O)c3ccccc3)C(=O)c3ccccc3C2=O)c1	-17.2%	-24.0%
CCC(=O)Nc1cccc(NC(=O)c2ccccc2Cl)c1	-8.0%	i
Cc1ccc([N+](=O)[O-])cc1NC(=O)CSc1n[nH]c(-c2cccnc2)n1	5.7%	-7.5%
COC(=O)C[C@H]1C[C@H]2c3cc(NC(=O)Cc4ccncc4)ccc3O[C@H]2[C@@H](CO)O1	-15.0%	-14.0%
Cc1ccc(OCC(=O)NNC(=O)CSC(=S)N2CCCC2)cc1	-5.4%	-9.4%
Cc1ccc(OCc2nnc(SCC(=O)c3cccc([N+](=O)[O-])c3)n2C)cc1	-16.1%	-1.3%
CCOc1ccc2oc(C(=O)Nc3ccc(N4CCOCC4)cc3)c(C)c2c1	-6.0%	-9.4%
COc1ccc(-c2nc(CS(=O)CC(=O)NCCN3CCCCCC3)c(C)o2)cc1OC (centres undefined)	-25.3%	-21.7%
CCN1CCN(CCCNC(=O)C2CCCN(c3nc4c(C)cc(C)cc4s3)C2)CC1 (centres undefined)	-25.5%	i
CC/C(=N\NC(=O)c1nnn(-c2nonc2N)c1-c1cccc(OC)c1)c1ccc(C)cc1	-5.7%[7.34 µM]	-13.6%[7.34 µM]
Cc1ccc(-c2nc(CSc3nnc(C)n4c3cc3occc34)c(C)o2)cc1	-13.0%	-11.6%
CN(C)CCNC(=O)C1CCN(c2nc3ccccc3[nH]2)CC1	-11.6%	-16.2%

# 2 entries from above, set out differently:
Compound: Cc1ccc(OCc2nnc(SCC(=O)c3cccc([N+](=O)[O-])c3)n2C)cc1
- VACV Venus inh: -16.1%
- VACV mCherry inh: -1.3%

Compound: CCOc1ccc2oc(C(=O)Nc3ccc(N4CCOCC4)cc3)c(C)c2c1
- VACV Venus inh: -6.0%
- VACV mCherry inh: -9.4%

# The list continues:
structure	VACV Venus inh	VACV mCherry inh
Cn1nc(-c2cccnc2)nc2c(=O)n(C)c(=O)nc1-2	2.51µM*	3.16µM*
CCOC(=O)CCCCC(=O)c1[nH]c(=O)[nH]c1Cn1cnc2ccccc21	0.5%	-22.1%
Cc1ccc(CN2CCC(CNC(=O)Nc3cccc(C)c3C)C2)cc1 (centres undefined)	-18.2%	-18.1%
O=C(Cc1ccccc1)Nc1nc(-c2cccc([N+](=O)[O-])c2)cs1	-2.0%	-11.5%
Cc1ccc(S(=O)(=O)N2[C@@H](c3ccc(C(C)(C)C)cc3)C(C(=O)O)=CC[C@H]2c2ccc(Cl)cc2)cc1	-26.6%	-3.4%
Cc1nn(CCCC(=O)N2CCc3ccccc3C2)c(=O)c2cc3sccc3n12	3.6%	0.9%
CCOc1ccc(Nc2nc(N)nc(CSC(=S)N3CCN(c4ccccc4)CC3)n2)cc1	-15.0%	-1.7%
O=NN1CCCC1c1cccnc1 (centres undefined)	-7.8%	i
Cc1ccc(C(=O)COC(=O)CN2C(=O)C3C4CCC(C4)C3C2=O)cc1[N+](=O)[O-] (centres undefined)	-0.9%	-23.2%
Cc1ccc(NC(=O)CN2C(=O)C3C4C=CC(C4)C3C2=O)cc1S(=O)(=O)N(C)C (centres undefined)	-13.6%	-18.4%
COc1ccc(Cl)cc1NC(=O)c1nc(S(C)(=O)=O)ncc1N(Cc1ccc(C)cc1)Cc1ccco1	-17.4%	-0.2%
COc1ccc(-c2onc(C)c2C)cc1S(=O)(=O)N1CCc2ccccc21	-26.5%	?
COc1cccc(CNC(=O)C2CCC(CNS(=O)(=O)c3cccs3)CC2)c1 (centres undefined)	-4.2%	-3.5%
Cc1ccc(-n2c(SCC(=O)Nc3ccc4c5c(cccc35)CC4)nc(O)c(C)c2=O)cc1	-0.8%	-12.0%
COc1cc(C2Nc3ccccc3C(=O)N2c2ccccc2)c(Br)cc1OCC(=O)O (centres undefined)	-4.6%	i

# Next part:
structure	VACV Venus inh	VACV mCherry inh
CCCCCCC(=O)N1CCN(c2cc3c(cc2F)c(=O)c(C(=O)O)cn3CC)CC1	-14.1%	-6.2%
CCN(CC)S(=O)(=O)c1ccc(N2CCN(c3cccc(OC)c3)CC2)c([N+](=O)[O-])c1	-28.4%	-16.4%
Cc1oc(-c2ccccc2F)nc1Cn1c(SCc2cccc(Cl)c2)nc2ccncc21	-11.6%[7.34 µM]	-5.6%[7.34 µM]
Cc1ccc(-n2c(SCC(=O)N3CCC(C)CC3)nc3c([nH]c4ccccc43)c2=O)cc1	-19.0%	-26.1%
Cc1oc2c(c1C(=O)NCCCC(=O)O)CCCC2	-0.3%	-15.7%
CC(C)(C)c1ccc(S(=O)(=O)N2CCC(NC(=O)c3ccco3)CC2)cc1	-6.2%	-15.1%
COc1ccc(CCNc2oc(-c3ccccc3OC)nc2C#N)cc1	-22.9%	.
NC(=S)Nc1ncc(CCN2CCOCC2)c(-c2ccc(F)cc2)n1	-10.7%	8.2%
c1ccc2cc3[nH]c(CN4CCCCC4)nc3cc2c1	-5.0%	-27.4%
O=C(Nc1nnc(C2CC2)o1)c1ccc(S(=O)(=O)N2CCc3ccccc3C2)cc1	-16.7%	-3.9%
O=C(COc1ccc(Cl)cc1)NCCNC(=O)c1ccccn1	8.7%	-14.1%
COC(=O)C1=C(c2ccc(-c3ccccc3)c(F)c2)C[C@@H]2CC[C@H]1N2C(=O)N1CCc2cc(OC)c(OC)cc2C1	?	?
COc1ccccc1-c1cc2nc(C)c(CCC(=O)NCCc3ccc(SC)cc3)c(C)n2n1	-7.9%[7.34 µM]	-10.5%[7.34 µM]
CS(=O)(=O)n1nc(OC(=O)c2cccc3ccccc23)cc1N	-11.0%	-15.5%
CCc1nnc(NC(=O)CSc2nc(-c3ccc(OC)cc3)ns2)s1	-5.0%	-1.6%

# More results follow:
structure	VACV Venus inh	VACV mCherry inh
COc1cccc(C2=NS(=O)(=O)N(C)C(C(=O)Nc3ccccc3SC)=C2)c1	-9.3%	-6.8%
COc1ccc2c(c1O)Cc1ccccc1C2=O	6.2%	-5.7%
O=S(=O)(c1cccc2ccccc12)N1CCC2CC1c1cc(Cl)ccc12 (centres undefined)	-1.9%	?
O=C(c1ccc(COc2ccccc2Cl)o1)N1CCN(c2ccccc2)CC1	-9.4%	39.4%[activator]
O=C(CCN1CCOCC1)Nc1c(-c2ccccc2)c2cc(Br)ccc2[nH]c1=O	-22.9%	-6.4%
CC(C)(C)N1C(=O)c2ccccc2NC(=O)N1Cc1ccccc1	-10.5%	i
Cc1ccc(N2C(=O)c3ccccc3C(C)(C)C2=O)cc1	-6.9%	i
CCOc1ccc(CCNC(=O)C2CCCN(S(=O)(=O)N(C)c3ccc(F)cc3)C2)cc1 (centres undefined)	-25.3%	-12.5%
Cn1c(SC2=CS(=O)(=O)c3ccccc32)nc2ccccc21	?	.
COc1ccc(NC(=O)CCNS(=O)(=O)c2ccc3c(c2)c(=O)n(C)c(=O)n3C)cc1OC	-9.1%	-15.4%
COc1ccc(-n2nc3c(c2NC(=O)CCl)CSC3)cc1	3.2%	i
Cc1cc(C)c2oc(C(=O)N(Cc3ccccc3)C3CCS(=O)(=O)C3)cc(=O)c2c1 (centres undefined)	-13.5%	-18.0%
CCOC(=O)c1sc2cccc(F)c2c1N	-8.8%	-12.3%
Nc1ccc(-c2cnc(N)c(C(=O)c3cccnc3)n2)cn1	10µM*	?
OCCN1CCN(CC#CCn2c3ccccc3c3ccccc32)CC1	-28.3%	.

# Next part.
structure	VACV Venus inh	VACV mCherry inh
Cc1ccc(NC(=O)CSc2nc(=O)n(CCN3CCOCC3)c3c2CCC3)c(C)c1	-5.3%[7.34 µM]	-4.5%[7.34 µM]
COc1ccc(CCNC(=O)C2Cc3ccccc3C(=O)O2)cc1 (centres undefined)	4.1%	-4.2%
Cc1c(C(=O)NCc2ccc(S(N)(=O)=O)cc2)oc2ccc(Cl)cc12	1.0%	12.1%
C#Cc1ccc([C@@H]2C=C(C(=O)NCc3nc4ccccc4[nH]3)O[C@H](OCC)[C@H]2CCCO)cc1	-19.3%	-10.5%
CCN(C1CCCCC1)S(=O)(=O)c1ccc(S(=O)(=O)NCc2ccncc2)cc1	?	?
C/C(=N\O)c1ccc(Cl)c(Cl)c1	-16.3%	-28.2%
COc1ccc(-n2nc(C(=O)NCC(=O)NCc3ccc(F)cc3)c3ccccc3c2=O)cc1	-10.1%	-1.9%
CCOC(=O)[C@H]1[C@H]2COc3ccc(OC)cc3[C@@H]2N2C(=O)c3ccc(Cl)cc3NC(=O)[C@@]12C	-21.8%	i
COCCNC(=O)NC(=O)CN1CCCc2ccccc21	10.1%	i
CC(NC(=O)CCl)c1ccccc1Br (centres undefined)	-4.2%	-29.8%
O=C(Nc1nccs1)C1CCCN(S(=O)(=O)c2cccc3cccnc23)C1 (centres undefined)	-13.8%	-14.5%
Cc1ccc([N+](=O)[O-])cc1S(=O)(=O)N1CCn2cccc2C1c1ccc(F)c(F)c1 (centres undefined)	-6.8%	-11.4%
CCCN1CCc2cccc3c2C1Cc1ccc(O)c(O)c1-3 (centres undefined)	-8.5%	i
CC(C)OC(=O)CCC(=O)Nc1ccc(F)cc1	2.8%	-10.8%
CCOC(=O)c1cccc(NC(=O)/C=C/c2ccc3c(c2)OCO3)c1	?	-23.2%

# (list continues)
structure	VACV Venus inh	VACV mCherry inh
COc1ccc(Cn2cc(CN3CC(N4CC=CC4)CS3(=O)=O)nn2)cc1 (centres undefined)	5.8%	33.2%[activator]
O=C(c1ccc(F)cc1F)N1CCN(c2n[nH]c(=O)[nH]c2=O)CC1	-10.0%	-22.9%
Cn1c(=O)c2c(nc(N3CCOCC3)n2Cc2ccc(Br)cc2)n(C)c1=O	24.4%	20.0%
CN(C)C(CNC(=O)c1cccc(S(=O)(=O)Nc2ccc(Br)cc2)c1)c1ccco1 (centres undefined)	-7.8%	-9.7%
CCOC(=O)N1CCN(c2c(N3CCN(c4cc(C)ccc4C)CC3)c(=O)c2=O)CC1	-22.7%	-15.0%
CCCCN1CCC(CCC(=O)c2cc(Cl)c(N)cc2OC)CC1	-21.8%	?
O=C(N/N=C/c1cc(Cl)ccc1O)c1ccncc1	0.0%	?
CCOc1ccccc1N(CC(=O)NCCSCc1ccco1)S(=O)(=O)c1ccccc1	-18.0%	-8.3%
COc1ccccc1CN1C[C@@H]2C[C@@H](c3[nH]c4c(C)cccc4c3C)N3CCC[C@@]23C1=O	?	?
C=CCn1c(CNC(=O)c2cccs2)nnc1SCc1ccc(Cl)cc1Cl	?	?
CN(C)c1cccc(CNC(=O)c2csc([C@@H]3O[C@H](CO)[C@H](O)[C@H](O)[C@H]3O)n2)c1	11.0%	-0.5%
COc1cc(NC(=O)c2ccccc2NS(=O)(=O)c2ccc(Cl)s2)cc(OC)c1	?	?
Cc1ccc(NC(=O)c2oc3ccc(S(=O)(=O)N(C)C4CCCCC4)cc3c2C)c(C)c1	-1.9%	-11.9%
COc1ccc2nc(/C=N/NC(=O)[C@@H]3CCCN3C(=O)OC(C)(C)C)ccc2c1	-10.8%	i

# Assay outcomes deposited in PubChem BioAssay by National Center for Advancing Translational Sciences (NCATS).

# Compounds as they come. Share with any hit: about 0.87%.
